Compound activity (PubChem BioAssay)
RE007 growth inh: less growth of the S. pombe RE007 Vpr strain; S. pombe RE007 Vpr strain, BacTiter-Glo ATP luminescence, 24 h; control for the full effect not named in the record; Potency, µM (series often up to 92.2 µM), for the others: at the highest dose activity change, negative = less growth; 0.21% of 360,000 active; active = well fitted falling curve with a large enough effect; inconclusive = small, poorly fitted or top-dose-only effect; inactive = no such curve, though single readings can be large or run the other way;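 also: % is scaled to controls: 0 for no effect and ±100 for the full control effect; nearly all actives have a fitted effect of over 50% in size; the assay follows cell death caused by Vpr and the record does not say whether a fall means rescue or toxicity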
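Fission yeast strain RE007, carrying one chromosomally integrated HIV-1 vpr copy, was seeded at OD 0.01 in PMG+AL medium with 23 nL pinned compound. After 24 h at 30 °C and 99% humidity, viability was read by BacTiter-Glo luminescence.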
LASV entry inh: blocks Lassa virus binding to or entry into cells | Lassa virus pseudotype entry inhibition, cell reporter; control for the full effect not named in the record | Potency, µM (highest dose often 37.9 µM), for the others: at the highest dose activity change, negative = inhibition, actives largely listed as inhibitors | 1.2% of 300,000 active; active means well fitted inhibition curve with a large enough effect; inconclusive means small, poorly fitted or top-dose-only effect, or effect the other way; inactive means flat fitted curve, though single readings scatter; tested in HEK293 cells; also: % is scaled to controls: 0 for no effect and ±100 for the full control effect; nearly all actives have a fitted effect of over 50% in size; luciferase read-out
MARV entry inh: Marburg virus entry inhibition | Marburg virus pseudotyped entry inhibition, cell reporter; control for the full effect not named in the record; about a third of the inactives were read at about 46 µM | Potency, µM (series often up to 37.8 µM), inactives show top-dose activity change, negative = inhibition, usual class: inhibitors | 1.8% of 300,000 active; active = well fitted inhibition curve with a large enough effect; inconclusive = small, poorly fitted or top-dose-only effect, or effect the other way; inactive = flat fitted curve, though single readings scatter; tested in HEK293 cells; about a fifth of its hits are not listed in these tables; also: % is scaled to controls: 0 for no effect and ±100 for the full control effect; luciferase read-out
NS1 inh: influenza NS1 inhibition; AID 2326; Potency, µM (highest dose often 46.1 µM), without a hit: at the highest dose activity, positive = more growth; S. cerevisiae slowed by influenza A NS1, growth recovery by OD600; 0.4% of 270,000 active; active means well fitted rising curve with a large enough effect; inconclusive means small, poorly fitted or top-dose-only effect; inactive means no such curve, though single readings can be large or run the other way; also: nearly all actives have a fitted effect of over 50% in size
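S. cerevisiae expressing influenza A NS1, grown in glucose, washed, then diluted 1:100 into pH 6.0 -URA galactose medium with 23 nl compound. Growth recovery read as OD600; NS1-free strain serves as control.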
2A StopGo: FMDV 2A StopGo reporter, luciferase signal. 1.2% of 410,000 active. human cells with a luciferase reporter of 2A StopGo recoding; control for the full effect not named in the record. Potency, µM (top dose mostly 57.9 µM), for inactives: at the top dose signal change, negative = less light; active = well fitted falling curve with a large enough effect; inconclusive = small, poorly fitted or top-dose-only effect; inactive = no such curve, though single readings can be large or run the other way; tested in HEK293T cells; also: % is scaled to controls: 0 for no effect and ±100 for the full control effect; nearly all actives have a fitted effect of over 45% in size; luciferase light after 4 h
Cruzain inh Det: cruzain (T. cruzi) inhibition with detergent; P25779; purified cruzain, Z-FR-AMC fluorescence, 0.01% Triton; Potency, µM, for the others: max response, negative = inhibition, most hits filed as inhibitors; 0.43% of 200,000 active;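 also: plate controls were neutral wells for no effect and buffer without enzyme for full effect; nearly all actives have a fitted effect of over 40% in size; top concentration of the series not given in the record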
Target sequence (P25779 123-467 limits assumed): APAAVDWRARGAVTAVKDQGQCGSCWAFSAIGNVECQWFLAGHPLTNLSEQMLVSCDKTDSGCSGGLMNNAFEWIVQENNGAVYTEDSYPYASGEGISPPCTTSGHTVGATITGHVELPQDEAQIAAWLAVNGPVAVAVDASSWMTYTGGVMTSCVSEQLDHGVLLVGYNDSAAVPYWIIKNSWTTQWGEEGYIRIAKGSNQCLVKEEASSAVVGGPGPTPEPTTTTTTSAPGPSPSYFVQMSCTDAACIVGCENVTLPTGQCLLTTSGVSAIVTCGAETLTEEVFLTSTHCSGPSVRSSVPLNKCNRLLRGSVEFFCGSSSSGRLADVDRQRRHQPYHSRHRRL
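Read-out: AMC fluorescence (360 nm excitation, 450 nm emission), four reads over 2 min, first-to-third difference used. Conditions: cruzain 1.5 nM, Z-FR-AMC 2 uM, pH 5.5 acetate, 5 mM DTT, 0.01% Triton X-100.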
Cruzain inh noDet: inhibitors of Trypanosoma cruzi cruzain without detergent | P25779 | purified cruzain, Z-FR-AMC fluorescence, no detergent | Potency, µM, inactives show max response, negative = inhibition, hits mostly inhibitors | 2.3% of 200,000 active | AID 1476;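 also: plate controls were enzyme without inhibitor for no effect and buffer without enzyme for full effect; nearly all actives have a fitted effect of over 40% in size; top concentration of the series not given in the record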
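Purified cruzain at 1.5 nM, pre-incubated 15 min with compound at room temperature in 100 mM sodium acetate pH 5.5, 5 mM DTT, 0.00005% Triton X-100. Reaction started with 2 uM Z-FR-AMC; AMC fluorescence increase over 60 s gives rate.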
SARS PLpro yeast: inhibitors of SARS-CoV papain-like protease in yeast; S. cerevisiae expressing SARS-CoV PLpro, growth rescue; control for the full effect not named in the record; Potency, µM (top dose mostly 32.9 µM), inactives show top-dose activity, positive = growth rescue; 0.19% of 330,000 active; AID 485353; active means well fitted rising curve with a large enough effect; inconclusive means small, poorly fitted or top-dose-only effect; inactive means no such curve, though single readings can be large or run the other way; also: 0% is about no effect; nearly all actives have a fitted effect of over 55% in size; growth read by luminescence after 48 h
Starred values were filed as active, the others as inactive; ? = inconclusive; · = no result given; & = joins results of further samples; [ ] = another dose, or the depositor's remark. Unless noted, calls follow the shape of the dose curve; as a rule, active = well fitted curve in the direction sought with a large enough effect; inconclusive = small, poorly fitted or top-dose-only effect, or another doubt; inactive = no such curve, though single readings can be large; an effect the other way counts as inactive or inconclusive. Potency is read from the fitted curve at half-maximal effect.

SMILES	RE007 growth inh	LASV entry inh	MARV entry inh	NS1 inh	2A StopGo	Cruzain inh Det	Cruzain inh noDet	SARS PLpro yeast
CC(=O)N1C(=O)N(C(C)=O)C2C1N(C(C)=O)C(=O)N2C(C)=O (stereo unspecified)	-3%	-2%	-11%	-3%	-11%	2.6%	3%	-5%
COc1cccc(NC(=S)N(C)C2CCN(C)CC2)c1	-5%	?	10%[46.1 µM]	2%	3%	·	·	-1%
COc1ccc(S(=O)(=O)N2Cc3ccccc3CC2C(=O)N2CCOCC2)cc1OC (stereo unspecified)	6%	1%	1%&1%	4%	20%	6.2%	0%	1%
CCOc1cc(/C=N\NC(=O)CN2CCOCC2)ccc1OCc1ccc(F)cc1	-20%	0%	16%	-11%	-22%	-3.7%	7%	-20%
COc1cccc(-c2c(C(=O)N/N=C/c3cccnc3)nnn2-c2nonc2N)c1	4%	·	·	10%	0%	·	·	11%
O=C(Nc1c(F)cc(F)cc1Br)c1cc(-c2ccco2)on1	-7%	-12%	5%	-18%	33%[activator]	2.6%	?	0%
Cc1cccc(OCc2nnc3n2CCCCC3)c1	-15%	9%	4%	-3%	8%	6.7%	10%	7%
COc1ccc(NC(=O)COc2ccccc2C(=O)NCC(c2ccccc2)N(C)C)cc1Cl (stereo unspecified)	-21%	11µM*	?	-3%	-19%	·	·	10%
COc1ccc(NC(=O)N2CCc3ccccc3C2)cc1	7%	?	?	-19%	40%[activator]	·	·	-4%
O=C(CSc1ncnc2c1nnn2Cc1ccc(F)cc1)NC1CCCC1	8%	2%	1%[46.1 µM]	·	-11%	·	·	4%
Nc1nc(-c2ccccc2)c(-c2ccc([N+](=O)[O-])cc2)s1	-8%	·	·	-5%	?	·	·	-22%
O=C(Nc1ccccc1Cl)Nc1ccccc1Cl	-7%	-1%	12%[46.1 µM]	-5%	1%	·	·	0%
CCCN1CCN(C(=O)C2CCN(c3nnc(C)c4c(C)n(-c5ccc(C)cc5)nc34)CC2)CC1	-2%	·	·	0%	-16%	·	·	0%
CCCCN(C)C(=O)Cn1c(=O)oc2cc(S(=O)(=O)N3CC(C)CC(C)C3)ccc21 (stereo unspecified)	4%	·	·	4%	6%	·	·	0%
COCCNC(=S)N(Cc1cc2cc(C)ccc2n2nnnc12)C1CCCC1	-4%	-13%[46.1 µM]	?	·	9%	·	·	0%
Cc1ccc(Cl)cc1N1CCN(C2CCCCC2NS(=O)(=O)c2ccccc2)CC1 (stereo unspecified)	-6%	·	·	12%	?	·	·	-9%
COCC(C)n1c(SCC(=O)Nc2cc(C)on2)nc2ccccc2c1=O (stereo unspecified)	-1%	-29%	0%	·	-7%	·	·	4%
Cc1cccc(C)c1N(Cc1ccccc1F)S(C)(=O)=O	-16%	1%	-23%[46.1 µM]	-8%	-20%	·	·	0%
CC(C)Oc1ccc(C(CC(=O)O)n2cnnn2)cc1 (stereo unspecified)	42%	3%	-12%[46.1 µM]	·	-12%	·	·	-1%
NS(=O)(=O)c1ccc(CNC(=O)/C=C/c2ccco2)cc1	14%	·	·	3%	4%	·	·	1%
C=CCN(Cc1cccc(OC)c1OC)S(=O)(=O)N(C)C	9%	15%	3%	-4%	·	6.2%	-3%	4%
Cc1ccc(CNC(=O)Cc2noc3ccccc23)cc1	25%	?	-17%[46.1 µM]	9%	-7%	·	·	0%
CC(=O)N1CCN(c2ccc(NC(=O)c3ccc4c(c3)OCCO4)cc2Cl)CC1	-2%	?	?	-2%	?	·	·	-1%
O=C(CCc1ccc(S(=O)(=O)N2CCOCC2)cc1)Nc1nccs1	-5%	0%	1%	10%	-21%	4.1%	7%	-5%
O=C(COC(=O)c1c(Cl)cccc1Cl)Nc1cc(Cl)ccc1Oc1ccccc1	16%	·	·	11%	-1%	0.6%	?	-1%
O=S(=O)(Nc1ccc(O)c2ccccc12)c1ccc(OC(F)(F)F)cc1	6%	-29%	?	·	?	·	·	·
Cn1ncc(N=Cc2ccccc2)c1C(N)=O	2%	7%	-14%	-4%	8%	0.9%	7%	-4%
COc1ccccc1-c1noc(-c2ccccc2C(=O)NCC2CCCO2)n1 (stereo unspecified)	-1%	·	·	3%	-7%	·	·	-7%
COCCn1c(-c2ccc(Cl)cc2)nc2c(c(=O)c3ccccc3n2C)c1=O	·	·	·	4%	·	0.9%	7%	0%
Cc1ccc(NC(=O)CS(=O)CC(=O)NCC2CCCO2)cc1 (stereo unspecified)	-12%	-3%	-12%	6%	-11%	-0.6%	1%	7%
Cc1cccc(NS(=O)(=O)c2csc(C(N)=O)c2)c1	-4%	·	·	-1%	44%[activator]	·	·	0%
CN1C(=O)CC(c2cn(Cc3ccccc3)c3ccccc23)C1=O (stereo unspecified)	27%	·	·	8%	-12%	·	·	-3%
CN(CCc1ccccn1)C(=S)Nc1cccc(S(=O)(=O)N(C)C)c1	-8%	-20%	0%[46.1 µM]	2%	4%	·	·	-2%
Cc1cccc(OP(N)(=O)Oc2cccc(C)c2)c1	-18%	·	·	-4%	-13%	·	·	0%
CCOC(=O)c1c(C)n(CCOC)c2ccc(O)cc12	-9%	?	6%	-8%	-10%	1.1%	6%	0%
COc1ccc(-n2c(=O)c3c4c(sc3n3cnnc23)CC(C)CC4)cc1 (stereo unspecified)	0%	17%	14%	·	32%[activator]	·	·	·
CC(C)N1CC(C(=O)Nc2nc3ccccc3s2)CC1=O (stereo unspecified)	3%	15%	-4%	-1%	22%	1.1%	2%	-8%
COc1cccc(-n2c(SCC(=O)NCc3cccs3)nc3ccccc3c2=O)c1	-4%	-1%	?	2%	15%	-3.4%	-14%	10%
Cc1ccc(-c2nc3ccccc3c(=O)n2CCCn2ccnc2)cc1	5%	23%	15%	-4%	-2%	1.7%	-3%	1%
CCOc1ccc(-c2ccc(/C=C3/C(=N)N4C=CSC4=NC3=O)o2)c([N+](=O)[O-])c1	5%	1%	-18%	-3%	?	-5.3%	-29%	14%
CCOC(=O)c1ccc(NC(=S)N2CCN(CCNC3=CC(=O)CC(C)(C)C3)CC2)cc1	14%	19%	4%[46.1 µM]	·	-23%	·	·	4%
COCCn1ccc2c(OCC(=O)Nc3cccc(C(F)(F)F)c3)cccc2c1=O	·	-28%[46.1 µM]	·	·	0%	-11%	?	·
C/C(=N\NC(=S)NC1CCCCC1)c1ccc(OC(F)F)cc1OC(F)F	?	?	?	19%	0%	·	·	0%
COc1ccc(NC(=O)c2ccc(-n3cccn3)nc2)c(OC)c1	?	-17%	2%	-6%	-12%	5.6%	-6%	1%
CCOC(=O)c1cccc(NC(=O)c2ccc3c(c2)nnn3CC)c1	·	23%[46.1 µM]	·	·	-15%	0.0%	13%	·
COCc1nnc(NC(=O)CCN2C(=O)c3ccccc3C2=O)s1	5%	-8%	10%	20%	17%	2.6%	-7%	2%
COc1ccc(CC(=O)N/N=C/c2c(C)n(C)c3ccccc23)cc1OC	-13%	·	·	-14%	-3%	·	·	-1%
CC1=C(C(=O)Nc2ccccc2)C(c2ccc(C)o2)n2c(s/c(=C/c3ccccc3)c2=O)=N1 (stereo unspecified)	8%	-13%	?	13%	0%	-0.1%	?	3%
COc1ccccc1CNC(=O)COC(=O)c1cc(-c2ccco2)nc2ccccc12	-17%	?	-1%	9%	·	-28%	1%	0%
CCCC(=O)Nc1nc2ccc(S(N)(=O)=O)cc2s1	-5%	9%	35%	-4%	15%	-2.9%	-17%	-7%
The list continues.
SMILES	RE007 growth inh	LASV entry inh	MARV entry inh	NS1 inh	2A StopGo	Cruzain inh Det	Cruzain inh noDet	SARS PLpro yeast
CCc1cc(=O)[nH]c(SCCC(F)=C(F)F)n1	1%	5%	15%[46.1 µM]	-2%	-6%	·	·	1%
CCOC(=O)CSc1nnc(NCC(=O)OC)c(=O)[nH]1	-5%	0%	5%	8%	-2%	-2.2%	-11%	5%
Cc1c(O)ccc(C(=O)CN2C(=O)c3ccccc3C2=O)c1O	2%	17%	-18%	-15%	31%[activator]	-3.5%	-11%	0%
COc1ccccc1N1CCN(C(=O)CN(C2CCCCC2)S(C)(=O)=O)CC1	-17%	0%	-13%[46.1 µM]	-7%	4%	·	·	0%
O=C1C2CCCN2C(c2ccc(Cl)c(Cl)c2)N1c1ccccn1 (stereo unspecified)	0%	10%	0%	-4%	-14%	-4.2%	23%	-20%
O=C(Nc1ccccc1)/C(=C\c1ccco1)NC(=O)c1ccco1	-23%	21%[46.1 µM]	10%[46.1 µM]	5%	-1%	·	·	1%
Cc1ccc(-n2cc(CN3CCCN(C=O)CC3)c(-c3ccc(F)cc3)n2)cc1	-18%	-1%	?	-2%	-3%	·	·	-1%
Cc1ccc(Cl)cc1-n1c(CCC(=O)O)ccc1-c1cccs1	·	-4%[46.1 µM]	19%[46.1 µM]	·	-14%	-16%	1%	·
O=C(C1=C[C@@H](c2ccccc2)C[C@@H](OCc2ccc(CO)cc2)O1)N1CCCCCCC1	-6%	·	·	-1%	21%	·	·	-1%
COc1ccc(CCC(=O)N2CCCC(Nc3ccccc3)C2)cc1OC (stereo unspecified)	16%	-1%	-5%[46.1 µM]	19%	-12%	·	·	2%
CN1CCN(Cc2nc3c(c(=O)[nH]c(=O)n3C)n2Cc2c(F)cccc2Cl)CC1	-9%	·	·	-6%	0%	1.8%	-4%	3%
O=C(N/N=C/c1ccccc1O)c1cc[n+]([O-])cc1	-9%	?	1%[46.1 µM]	-4%	7%	·	·	2%
Cc1ccc(CS(=O)(=O)CCC(=O)N2CCC3(CC2)OCCO3)cc1	6%	-4%	4%	-1%	-23%	-1.5%	-6%	-4%
COc1ccccc1NC(=S)N(c1ccccc1)C(C)C	-10%	?	-14%	4%	19%	·	·	0%
Cc1ccc(OCCSc2nc(C)c(Cc3ccccc3)c(=O)[nH]2)cc1	·	3%[46.1 µM]	-16%[46.1 µM]	·	-11%	-0.6%	-1%	·
CSc1cccc(NS(=O)(=O)c2cc(Br)cnc2N)c1	20%	·	·	-13%	48%[activator]	·	·	0%
